HNF4A DNA FP: change in binding of human HNF4 alpha to DNA | HNF4a-FITC DNA binding, fluorescence polarization, 1 h | activity change, % at 10 µM | actives 0.3% (n = 360,000) | AID 1224865; in the data active means activity change above about 30%, passing the limit was not always enough;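 further: controls were the assay level and a saturating level of protein; the project sought stronger binding though the title names inhibitors; some compounds called inactive have numbers as strong as hits; positive values seem to mean higher polarization but the record does not say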
Target sequence (P41235 whole entry, looked up): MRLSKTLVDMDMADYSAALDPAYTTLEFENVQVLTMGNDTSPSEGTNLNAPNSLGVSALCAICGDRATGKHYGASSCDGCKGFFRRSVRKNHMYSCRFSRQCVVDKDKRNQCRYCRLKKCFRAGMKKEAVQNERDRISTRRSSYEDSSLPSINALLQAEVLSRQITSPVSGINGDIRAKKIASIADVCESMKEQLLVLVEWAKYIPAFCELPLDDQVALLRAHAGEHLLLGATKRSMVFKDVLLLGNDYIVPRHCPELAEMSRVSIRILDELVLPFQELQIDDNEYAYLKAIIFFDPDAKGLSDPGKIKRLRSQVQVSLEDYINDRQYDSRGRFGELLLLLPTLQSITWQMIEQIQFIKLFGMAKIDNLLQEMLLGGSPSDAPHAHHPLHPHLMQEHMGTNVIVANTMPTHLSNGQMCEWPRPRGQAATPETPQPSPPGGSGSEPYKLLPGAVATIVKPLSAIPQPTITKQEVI
E coli growth: inhibitors of Escherichia coli growth. OD600, 23 h; stronger effect = lower value. OD600 absorbance (concentration not given with the values). actives 0.21% (n = 330,000). AID 1053175;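 active means OD600 absorbance below the run mean of sample wells minus 3.6 SD, in any replicate, cut at about 0.56 in these data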;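 further: stock transfer was 300 nL into about 60 µL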
Vif TR-FRET: inhibitors of Vif binding to APOBEC3G peptide, primary screen, biochemical, TR-FRET, GST-Vif 1-94, biotin-A3G peptide, dose response retest (AID 1117319) | actives 0.57% (n = 260,000) | inhibition, %; hits with a dose series show IC50 in µM | TR-FRET GST-Vif / biotin-A3G peptide binding; higher % means a stronger effect; test concentration not given here; strong numbers were not always called active;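 active means above the screen mean plus three standard deviations and confirmed in dose response; inconclusive means results disagree or hit not tested in dose response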;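 further: Vif residues 1-94 fused to GST binding biotinylated APOBEC3G peptide 110-148; 0% = full assay without inhibitor and 100% = GST in place of GST-Vif; retest series ran down from 100 µM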
RanGTP-Impb inh: disruptors of Ran-importin-beta complex formation – biochemical, FRET, CFP-Ran, YFP-importin-beta, homogeneous, primary screen | cell-free CFP-Ran/YFP-importin-beta FRET ratio | inhibition, % (concentration not given with the values) | actives 1.1% (n = 300,000) | AID 2216;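 active means most replicates above 15%; inconclusive means exactly half above 15%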;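 further: 0% = DMSO wells and 100% = Ran loaded with GDP instead of GTP; wells of about 40 µL received 100 nL stock; the first replicate is given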
UCH37 DUB inh: blocks the human deubiquitinase UCH37. Q9Y5K5. purified proteasome/UCH37, Ub-AMC cleavage fluorescence. inhibition, % (test concentration not listed). actives 0.33% (n = 330,000). AID 588478;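 active means mean of two replicates above 20%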;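 further: 0% = compound-free wells with enzyme and 100% = wells lacking proteasome; stock transfer was 100 nL into about 20 µL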
Target sequence (Q9Y5K5 whole entry, looked up): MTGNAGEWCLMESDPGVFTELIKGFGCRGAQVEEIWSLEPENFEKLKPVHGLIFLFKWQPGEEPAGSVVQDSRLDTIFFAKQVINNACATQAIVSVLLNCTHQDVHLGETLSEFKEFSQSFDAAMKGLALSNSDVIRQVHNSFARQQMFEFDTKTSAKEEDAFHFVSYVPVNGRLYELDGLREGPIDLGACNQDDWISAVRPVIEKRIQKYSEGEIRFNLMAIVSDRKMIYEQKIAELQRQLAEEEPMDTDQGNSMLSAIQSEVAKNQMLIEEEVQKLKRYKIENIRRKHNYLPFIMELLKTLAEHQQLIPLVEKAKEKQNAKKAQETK
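Material: human UCH37 enzyme supplied as purified proteasome complex. Measure: % inhibition of Ub-AMC cleavage fluorescence. Medium: pH 7.4 Tris-HCl (50 mM) with ovalbumin, ATP-MgCl2, DTT. Times: 30 min preincubation with enzyme, 25 min cleavage at room temperature. Detection: AMC fluorescence intensity at 355/460 nm.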
AF4-AF9 inh: MLL-AF4/AF9 protein interaction inhibition. AlphaScreen, biotin-AF4 peptide binding to FLAG-AF9. actives 0.47% (n = 350,000). inhibition, % at 10 µM;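 active means every replicate reaching a set inhibition limit, whatever the replicate mean, cut at about 25% in these data; inconclusive means mean inhibition reaches that limit but some replicates miss it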;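 further: 0% = plate neutral control median and 100% = total signal loss; the record names both 10 and 1 µM as test concentration; the first replicate is given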
FGF22 binding: FGF22 (human) thermal shift binding | Q9HCT0 | recombinant FGF22 thermal shift, SYPRO orange fluorescence; percent of sucrose octasulfate shift, DMSO zero | calls only at 9.99 µM | actives 1.5% (n = 340,000) | AID 651658;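 active means melting point raised past a set limit in the mean and every replicate; inconclusive means no clear call; three in four hits are not shown here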
Target sequence (Q9HCT0 whole entry, looked up): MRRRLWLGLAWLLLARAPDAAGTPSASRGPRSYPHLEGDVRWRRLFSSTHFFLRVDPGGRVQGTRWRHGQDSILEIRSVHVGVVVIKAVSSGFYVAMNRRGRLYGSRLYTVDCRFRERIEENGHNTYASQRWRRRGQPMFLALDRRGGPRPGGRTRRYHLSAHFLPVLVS
Numbers without * were called inactive; i = inactive; ? = inconclusive; · = not tested or not shown; & = joins results of further samples. Some of the compounds tested; rates above refer to the full screens.

mol	HNF4A DNA FP	E coli growth	Vif TR-FRET	RanGTP-Impb inh	UCH37 DUB inh	AF4-AF9 inh	FGF22 binding
Cc1cc(C=C2C(=O)NC(=O)NC2=O)c(C)n1-c1cccnc1	1.7	0.65	-5%	5.1	4.8	-4.2	i
COC(=O)C1C2c3ccccc3C(c3ccccc32)C1(C)C(=O)OC (stereo unspecified)	2.5	0.64	7%	·	2.7	-3.1	i
O=C(c1ccc2c3c(cccc13)CC2)C1CCCN(Cc2ncc[nH]2)C1 (stereo unspecified)	1.6	0.62	·	5.7	-103	14	·
O=C(C1CCCCC1)N1Cc2ccccc2-n2nncc2C1	4.0	·	-6%	·	·	-3.8	i
CCN1CCN(c2ccc([N+](=O)[O-])cc2C#N)CC1	-1.3	0.63	2%	-3.4	7.9	-0.7	i
CCOc1ccc2oc(C(=O)NN3C(C)CCCC3C)c(C)c2c1 (stereo unspecified)	1.4	0.65	1%	-2.1	-2.0	1.4	i
C[C@@H]1CN([C@H](C)CO)C(=O)CCCn2nncc2CO[C@H]1CN(C)C(=O)Oc1cccc2ccccc12	3.6	·	0%	·	·	-1.0&-1.7	i
COc1cc(C(c2c(O)c3ccccc3oc2=O)c2c(C)n(C)n(-c3ccccc3)c2=O)ccc1O (stereo unspecified)	1.4	0.72	18%	-0.7	1.7	·	·
CCn1c(=O)cc(SCC(=O)N2CCC3(CC2)OCCO3)c2ccccc21	1.2	0.72	11%	-3.1	-3.3	·	·
O=C1NC(=O)C(CCc2ccncc2)(CCc2ccncc2)C(=O)N1Cc1ccccc1	-1.6	0.69	·	1.3	-0.6	-0.2	·
CC12CCC3C(CCC4CC(=O)OCC43C)C1CCC2O (stereo unspecified)	1.3	0.67	3%	·	2.8	2.3	i
COC12C(COC(N)=O)C3=C(C(=O)C(C)=C(N)C3=O)N1CC1C2N1C (stereo unspecified)	-2.8	0.053*	·	3.0	13	0.4	i
O=C(O)CCn1cc(C=C2C(=O)NC(=S)NC2=O)c(-c2ccccc2)n1	-1.0	0.71	14%	5.9	2.1	-12	i
COc1ccc(C(C)=O)cc1CC(C(=O)c1ccc(Br)cc1)N(C)C (stereo unspecified)	4.5	0.68	·	-0.1	4.2	·	·
COC(=O)C1=C(c2ccc(Cl)c(C(F)(F)F)c2)C[C@@H]2CC[C@H]1N2C(=O)NCC1CC1	1.9	·	·	·	3.2	-0.9	i
O=C1NCN(c2ccccc2)C12CCN(C(c1ccnc3ccccc13)c1nnnn1C1CCCC1)CC2 (stereo unspecified)	4.7	·	·	·	·	0.9	i
CC(C)(C)c1ccc(CN2C(=O)CN=C(c3ccccc3)c3ccccc32)cc1	0.6	0.72	-5%	1.8	0.1	·	·
Cc1ccc2nc(-c3ccncc3)cc(C(=O)N3CCC4(CC3)OCCO4)c2c1	2.4	0.73	-2%	1.3	-0.6	·	·
O=C(c1cc2cc(F)ccc2[nH]1)N1CCC2(CC1)OCCO2	-0.2	0.69	·	-3.7	-5.5	-0.7	i
CCOc1ccc(C=C2C(=O)NC(=S)NC2=O)cc1OCC	-1.0	0.66	1%	·	1.9	2.4	i
CCC(c1nnnn1-c1ccc(OC)cc1)N1CCC(n2c(=O)[nH]c3ccccc32)CC1 (stereo unspecified)	3.6	·	·	·	·	-1.9	i
CCCC[N+]12CCC(CC1)C(=C(c1ccccc1)c1ccccc1)C2	-3.9	0.72	4%	-1.9	2.1	-0.3	i
O=C1c2ccccc2-n2nnc(-c3ccccc3)c2C2c3ccccc3CCN12 (stereo unspecified)	0.7	·	·	·	·	-1.6	i
COC(=O)C1=C(c2ccc3ccccc3c2)C[C@@H]2CC[C@H]1N2C(=O)NCCNC(C)=O	-3.6	0.77	·	·	1.0	·	·
Fc1ccc(CCNCc2ccccc2Cl)cc1	-2.9	0.64	1%	-2.8	4.2	·	·
COc1ccc(CC(=O)Nc2ccc(C#N)c(Cl)c2)cc1S(=O)(=O)N1CCOCC1	-1.1	0.69	·	?	4.6	-0.2	i
Cc1cccc(NC(=O)CSc2nnc([C@@H](N)Cc3c[nH]c4ccccc34)o2)c1C	0.7	0.71	5%	3.2	2.3	·	·
NCCCC(=O)OC1N=C(c2ccccc2Cl)c2cc(Br)ccc2NC1=O (stereo unspecified)	6.0	0.7	4%	-1.0	4.4	1.7	i
COc1cccc(OC)c1C1=NCC(=O)Nc2c1oc1ccc(Br)cc21	1.9	0.71	3%	2.0	0.9	12	i
O=c1[nH]c(=S)[nH]c(O)c1N=Nc1cccc(S(=O)(=O)N2CCOCC2)c1	-7.0	0.65	0%	5.0	20	-2.8	i

Continuation:
mol	HNF4A DNA FP	E coli growth	Vif TR-FRET	RanGTP-Impb inh	UCH37 DUB inh	AF4-AF9 inh	FGF22 binding
Fc1ccc(C(OCCN2CCCC2)c2ccc(Br)cc2)cc1 (stereo unspecified)	0.3	0.63	21%	2.6	0.7	-1.3	i
CCC(C(=O)N1C[C@H]2C[C@@H](C1)c1cccc(=O)n1C2)c1ccccc1 (stereo partly specified)	2.3	0.7	·	-2.5	4.3	1.9	i
CN1CCC(OC(=O)C2c3ccccc3Oc3ccccc32)CC1	3.8	0.7	-3%	3.1	0.5	·	·
CCOc1ccc(C2CC(c3c(O)n(C)c(=O)n(C)c3=O)=NN2)cc1 (stereo unspecified)	-3.0	0.71	13%	4.3	-1.2	-15	i
Cc1ccccc1N1C(=O)CC(=O)NC1=O	1.9	0.69	7%	-4.8	1.4	·	·
CC(=O)Nc1cc(C(=O)N2CCC3(CC2)OCCO3)ccc1S(=O)(=O)c1ccc(Cl)cc1	-1.8	0.69	0%	?	-0.5	·	·
CCC(=O)OC(Cc1ccccc1)(c1ccccc1)C(C)CN(C)C (stereo unspecified)	-28	·	·	·	·	-1.1	i
COC(=O)C1C(OC(=O)c2ccccc2)CC2CCC1N2C (stereo unspecified)	-0.1&4.1	0.64&0.78	15%	-6.1	1.0&2.5	4.5	i
CCCCn1c(O)c(C(=O)/C=C/c2ccc3c(c2)OCO3)c(=O)[nH]c1=O	-5.2	·	19%	-0.1	·	2.5	i
Cc1ccc(N2C(=O)NC(=O)/C(=C/c3ccoc3)C2=O)cc1	-28	0.68	·	·	4.7	-1.4	i
Cc1ccc(N2C(=O)NC(=O)/C(=C\C=C\c3ccco3)C2=O)cc1	9.0	0.67	8.5µM*	2.8	2.2	-13	·
BrCC1C[n+]2c(SCc3ccccc3)nc3sc4c(c3c2O1)CCCC4 (stereo unspecified)	3.5	0.66	26%	0.6	1.1	1.5	i
Cc1ccc2c(c1)CC1(CN2C)C(=O)NC(=O)N(c2cc(C)ccc2C)C1=O (stereo unspecified)	0.2	0.73	6%	5.8	5.4	·	·
CC(O)C1C=CC=CC(=O)OC2CC3OC4C5OC5(C)CCC4(COC(=O)C4OC4(C)C(O)CO1)C2(C)C31CO1 (stereo unspecified)	1.5	·	-10%	·	·	1.2	i
Cn1c2ccccc2c2c(C(=O)N3CCC4(CC3)OCCO4)cn(C3CCCCC3)c(=O)c21	3.0	0.68	-10%	-2.6	-95	·	·
CC(=O)C1C2c3ccccc3O[C@@]1(C)N=c1s/c(=C/c3ccoc3)c(=O)n12 (stereo partly specified)	1.8	·	?	0.0	·	·	·
CCCN1CCC[C@@H]2Cc3[nH]ncc3C[C@H]21	4.0	·	·	3.3	-1.1	-1.0	i
CCC(=NCC1CCCO1)c1c(O)n(-c2ccccc2C)c(=O)[nH]c1=O (stereo unspecified)	3.2	0.71	·	3.9	3.2	·	i
CN1C(=O)c2ccccc2NC(=O)[C@]12O[C@@H]2c1ccccc1	-4.8	0.7	0%	6.1	3.8	-3.0	i
Cc1nn(CCC#N)c2c1P(=S)(N1CCCC1)OC(c1ccc(F)cc1)=N2 (stereo unspecified)	-0.3	0.68	4%	0.7	4.6	·	·
CP(=O)(Nc1ccccc1)C(Cl)(Cl)Cl (stereo unspecified)	-0.8	0.7	·	0.3	4.0	-1.8	i
C(#CCN1CCCCC1)COCc1ccccc1	0.9	0.74	·	8.4	1.5	-0.2	i
Cc1cccc(OP(=O)(Nc2cccnc2)Oc2cccc(C)c2)c1	-1.5	·	·	-3.2	-0.3	·	·
COc1ccc(-n2nnnc2C(CCc2ccccc2)N2CCC3(CC2)C(=O)NCN3c2ccccc2)cc1 (stereo unspecified)	0.1	·	·	·	·	3.1	i
Cc1ccc(S(=O)(=O)N2Cc3cnnn3-c3ccccc3C2C#N)cc1 (stereo unspecified)	1.1	·	8%	·	·	3.7	i
O=C1NC(c2cccnc2)Nc2sc3c(c21)CCCC3 (stereo unspecified)	0.9	0.72	3%	-3.9	-20	·	·
CN1CCC(OC(=O)Cc2ccccc2)CC1	2.0	0.74	·	1.9	0.8	·	·
O=C(N/N=C/c1c(O)n(Cc2ccc(F)cc2)c(=O)[nH]c1=O)c1ccccc1	7.5	0.66	10%	1.1	-174	·	i
Cc1ccc(N2CCNCC2C)cc1 (stereo unspecified)	0.1	·	-5%	·	·	-1.1	i
C/C(=N\N1CCN(C)CC1)c1c(O)[nH]c(=O)[nH]c1=O	-0.8	0.71	25%	0.6	-4.2	·	·

Among those listed so far, 2 have a thiophene ring, fused or not:
mol	HNF4A DNA FP	E coli growth	Vif TR-FRET	RanGTP-Impb inh	UCH37 DUB inh	AF4-AF9 inh	FGF22 binding
BrCC1C[n+]2c(SCc3ccccc3)nc3sc4c(c3c2O1)CCCC4 (stereo unspecified)	3.5	0.66	26%	0.6	1.1	1.5	i
O=C1NC(c2cccnc2)Nc2sc3c(c21)CCCC3 (stereo unspecified)	0.9	0.72	3%	-3.9	-20	·	·

The list continues.
mol	HNF4A DNA FP	E coli growth	Vif TR-FRET	RanGTP-Impb inh	UCH37 DUB inh	AF4-AF9 inh	FGF22 binding
CC12CN3CN(C1)CC(c1ccccc1)(C3)C2=O	-3.4	0.75	-4%	4.4	-0.5	·	·
CC(=NCc1ccco1)c1c(O)n(Cc2ccccc2)c(=O)[nH]c1=O	6.2	0.72	7%	1.9	2.2	·	·
CCOC(=O)c1ccc(N=C(c2ccccc2)c2c(O)n(C)c(=O)n(C)c2=O)cc1	0.6	0.69	2%	1.8	9.2	-3.7	i
CC12CCC(=O)C=C1CCC1C2CCC2(C)C(O)(C(=O)CO)CCC12O (stereo unspecified)	-1.0	0.66	-8%	·	-0.1	-3.8	i
O=C1NC(=S)NC(=O)C1=Cc1c(Cl)cccc1Cl	-3.0	0.65	13%	·	3.4	-4.5	i
O=P(/C(=N/O)N1CCOCC1)(N1CCOCC1)N1CCOCC1	-1.3	·	0%	1.6	·	·	·
CCOCCCN=Cc1c(O)n(Cc2ccccc2)c(=O)[nH]c1=O	1.4	0.69	75%	-3.8	1.7	·	·
O=C(Cc1c(-c2ccccc2)nc2ccc(Br)cn12)N1CCCC1	-0.9	·	·	·	·	-1.2	i
Cc1c(C(=O)O)cc(-c2ccccc2)n1Cc1ccccc1	-4.0	0.68	7%	1.1	2.6	0.9	i
COc1ccccc1OCC(=O)Nc1ccc(Cl)cc1C(=O)c1ccccc1	-0.9	0.74	2%	0.6	2.5	·	·
Cc1ccc(-c2cc(-c3ccc(C)cc3)[n+](-c3ccc(C(=O)O)cc3)c(-c3ccc(C)cc3)c2)cc1	5.2	0.72	·	8.6	-13	-8.9	i
Clc1cc(Cl)c(-c2cc(Cl)c(Cl)cc2Cl)cc1Cl	-2.4	0.69	·	·	3.3	·	i
O=P1(N(CCCl)CCCl)NCCCO1 (stereo unspecified)	1.5	0.71	·	1.8	-1.4	-1.4	i
